# NPYLR7 agonist = mosquito NPYLR7 agonism. 270,000 tested, 0.15% active. HEK293T NPYLR7/Galpha15, GCaMP6s calcium fluorescence. activation, % at 10 µM; in the data active = activation above about 40%;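 also: 0% = vehicle and 100% = reference agonist at the receptor; some compounds past the cut are filed as inactive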
# NPYLR7 agonist max-min = recorded beside NPYLR7 agonist, whose call it bears; activation, %; measured here: Max-Min RFU normalised activation; some inactives read as strong as hits;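 span of the calcium signal over five minutes; 0% = vehicle and 100% = native peptide agonist; compound fluorescence can raise it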
# * = called active by the depositor; & = joins results of further samples. A portion of the library; count on the stated rates, not on these rows.
SMILES,NPYLR7 agonist,NPYLR7 agonist max-min
CC(=O)C(C(=O)N(C)C)n1cnc2c(nnn2-c2ccc(C)c(C)c2)c1=O (stereo not drawn),-3,-7
CCOc1ccc2nc(N3CCCN(C4CCSCC4)CC3)nc(C)c2c1,5,3
Cc1sc2nc(SCC(=O)NC3CCCC3)n(Cc3ccco3)c(=O)c2c1C,16,12
CCOC(=O)c1cnc(SC)nc1-c1ccc(F)c(CO)c1,4,-10
CCOC(=O)c1nn(-c2ccccc2)c(=O)cc1N1CCC2(CC1)OCCO2,9,2
Cc1cccc(Cn2c(=O)c(C(=O)O)nn(-c3cccc(Cl)c3)c2=O)c1,26,32
Cc1cc(SCC(=O)N2CCC(n3cncn3)CC2)c(C)cc1Br,15,12
O=C(Nc1ccccc1)N1CCCC(OCc2ccc(C(F)(F)F)cc2)C1 (stereo not drawn),-3,1
Cc1cccnc1CC(C)N(C)c1cc(CCN)ncn1 (stereo not drawn),9,0
Cc1ccc(C(=O)N2N=C(c3ccccc3)CC2c2nc3ccccc3[nH]2)cc1 (stereo not drawn),-4,-7
CN(C)CC1(O)CCN(C(=O)Cc2ccc3c(c2)OCO3)C1 (stereo not drawn),15,12
CN1CCN(C2=Nc3cc(F)ccc3Cc3ccccc32)CC1,-2,-5
Cc1cc(-c2nc3cccnc3s2)ccc1NS(=O)(=O)c1ccc(F)cc1F,3,0
Cc1cc(C(=O)CSc2nnc(C3CCCCC3)o2)c(C)n1C1CC1,1,2
CCC(=O)N1CCN(c2nc3nccc(C(C)(C)C)n3n2)CC1,6,1
Cc1noc(C)c1CN(C)C(=O)NC1CCN(c2ccccc2)CC1,4,1
CCOc1ccc(C(=O)OCC(N)=O)cc1OC,5,3
CN(C)C(=O)CC1Sc2ccc(C(F)(F)F)cc2NC1=O (stereo not drawn),-3,-1
Nc1c2c(nc3ccccc13)CCCC2,-5&-12&0&8&-11,-9&-15&3&-7&-15
CCOC(=O)C(Cc1ccc(Cl)cc1)NC(=O)C(=O)c1ccc(C2CCCCC2)cc1 (stereo not drawn),-10,-17

# Part of the list above in order of length of the SMILES, falling:
SMILES,NPYLR7 agonist,NPYLR7 agonist max-min
CCOC(=O)C(Cc1ccc(Cl)cc1)NC(=O)C(=O)c1ccc(C2CCCCC2)cc1 (stereo not drawn),-10,-17
CC(=O)C(C(=O)N(C)C)n1cnc2c(nnn2-c2ccc(C)c(C)c2)c1=O (stereo not drawn),-3,-7
Cc1ccc(C(=O)N2N=C(c3ccccc3)CC2c2nc3ccccc3[nH]2)cc1 (stereo not drawn),-4,-7
Cc1cccc(Cn2c(=O)c(C(=O)O)nn(-c3cccc(Cl)c3)c2=O)c1,26,32
Cc1cc(-c2nc3cccnc3s2)ccc1NS(=O)(=O)c1ccc(F)cc1F,3,0
Cc1sc2nc(SCC(=O)NC3CCCC3)n(Cc3ccco3)c(=O)c2c1C,16,12
Cc1cc(C(=O)CSc2nnc(C3CCCCC3)o2)c(C)n1C1CC1,1,2
CCOc1ccc2nc(N3CCCN(C4CCSCC4)CC3)nc(C)c2c1,5,3
CCC(=O)N1CCN(c2nc3nccc(C(C)(C)C)n3n2)CC1,6,1
CN(C)CC1(O)CCN(C(=O)Cc2ccc3c(c2)OCO3)C1 (stereo not drawn),15,12
CN(C)C(=O)CC1Sc2ccc(C(F)(F)F)cc2NC1=O (stereo not drawn),-3,-1
CCOC(=O)c1cnc(SC)nc1-c1ccc(F)c(CO)c1,4,-10
Cc1cccnc1CC(C)N(C)c1cc(CCN)ncn1 (stereo not drawn),9,0
CCOc1ccc(C(=O)OCC(N)=O)cc1OC,5,3
Nc1c2c(nc3ccccc13)CCCC2,-5&-12&0&8&-11,-9&-15&3&-7&-15

# The list continues:
SMILES,NPYLR7 agonist,NPYLR7 agonist max-min
CCOC(=O)CSC1=C(C#N)C(c2cccc(Oc3ccccc3)c2)CC(=O)N1 (stereo not drawn),-3,-8
COc1coc(C(=O)Nc2ccc(F)c(Cl)c2)cc1=O,13,5
COCCCN(CC(=O)N1CCc2sccc2C1COc1ccccc1OC)C(=O)c1cccc(Cl)c1 (stereo not drawn),-2,2
COc1cccc(C(=O)N2CCC3(CC2)OCC(C(=O)N2CCN(C)CC2)N3C(=O)c2ccccc2)c1 (stereo not drawn),2,11
CCCN=Cc1c(-c2ccccc2)[nH]n(-c2nc3ccccc3s2)c1=O,2,-2
Cn1cc(-c2ccc3c(c2)N(CC2CCCCC2)C(=O)COC3)cn1,-3,-2
O=c1ccc(C(F)(F)F)cn1Cc1cc2c(cc1Br)OCO2,1,0
COC(=O)c1ccc(CSc2nc3c(cnn3-c3ccc(C)c(C)c3)c(=O)[nH]2)o1,-3,-6
CCC(c1nc2ccccc2c(=O)n1-c1ccc(Br)cc1)N(CCOC)C(=O)c1ccc(Cl)cc1 (stereo not drawn),13,8
CC(=O)O/C(=C\Oc1ccccc1OC(C)=O)c1ccc([N+](=O)[O-])cc1,-4,-7
Fc1ccccc1OCc1n[nH]c(=S)o1,7,10
Cc1cc(C)c(S(=O)(=O)N2CCN(C(=O)CC3C=CCC3)CC2)c(C)c1 (stereo not drawn),7,12
CCN(Cn1nc(Nc2ccc(C)c(Cl)c2)sc1=S)C1CCS(=O)(=O)C1 (stereo not drawn),-2,-2
CCC(C(=O)N1CCSC1c1ccc(C(C)(C)C)cc1)c1ccccc1 (stereo not drawn),-13,-6
CSCCCNC(=O)c1sc2cccc(C)c2c1Cl,3,-3
N#Cc1cc2n[nH]nc2cc1C#N,2,2
COc1cc(OC)cc(-c2nnc(SCC(=O)N3CCOCC3)n2-c2ccc(C)cc2)c1,5,10
Cc1cccc(NC(=O)CSc2nc(N)c(NC(=O)c3ccc(Br)o3)c(=O)[nH]2)c1C,-4,-3
O=S(=O)(Nc1nc2ccc(F)cc2s1)c1ccc(F)cc1,0,5
Cc1nc2c(c(N3CCCC3)n1)CCN(C(=O)CC1CCC(=O)N1)C2 (stereo not drawn),-1,-1
COc1ccc(CCNC(=O)CN2CCS(=O)(=O)CC2)cc1,-2,-6
CSCCCNC(=O)c1cncn1-c1cccc(-c2ccccc2C(F)(F)F)c1,6,5
Cc1nc(C(C)(C)NC(=O)c2ccc3[nH]ccc3c2)no1,2,0
Cc1ccc2c(c1)C(=O)N(CCC(=O)OC(C)C(=O)N(c1nccs1)C1CCCCC1)C2=O (stereo not drawn),2,3
CCCc1nnc2c(C(=O)N3CCC[C@H]3C(=O)OCc3ccccc3)cccn12,4,4
CCN(CC)CCN(C(=O)CN1C(=O)CCC1=O)c1nc2cc3c(cc2s1)OCCO3,-5,-10
Cc1[nH]c2ccc(CNC(=O)c3cnc4c(c3)nnn4C)cc2c1C,3,1
CCCCN(CC(=O)Nc1cc(C(C)(C)C)nn1-c1ccc(Cl)c(Cl)c1)C(=O)Nc1cccc(Br)c1,6,8
COc1ccccc1OCC(=O)NCC1CCCN(C(=O)c2cccc(C)c2)C1 (stereo not drawn),3&10,2&11
O=C(C1CCCN(S(=O)(=O)N2CCCCCC2)C1)N1CCC(N2CCCCC2)CC1 (stereo not drawn),7,3
Cc1ccc(F)c(NC(=O)CNCC2(O)CCCCC2)c1,15,11
CCN(CC)C(=O)Oc1ccc2c(ccn2Cc2ccc(Cl)cc2)c1NC(=O)c1ccc(OC)c(OC)c1,0,5
COC(=O)[C@@H]1C[C@@H](NC(=O)c2cnc(-c3cccnc3)nc2)CN1C,17,0
CN(C)S(=O)(=O)[C@@H]1CCN(C(=O)OCc2ccccc2)C1,-6,-8
COc1ccc(NC(=O)c2nc(N3CCOCC3)ncc2Cl)cc1,9,8
O=C1CC(c2ccc(Cl)cc2)CC2=Nc3ccccc3NC(c3cccnc3)C12 (stereo not drawn),-3,-9
COc1ccc(-c2[nH]ncc2-c2[nH]cnc2-c2ccccc2)cc1,1,-1
Cc1ncc(-c2c(-c3ccccc3)ncn2CCCc2ccncc2)s1,0,-8
CN(C)C(=O)CN1CCCN(CCCC(C)(C)C#N)CC1,14,13
COc1ccc(CCn2c(-c3cc(C)c(OC)cc3C)nc3ccc(Cl)cc3c2=O)cc1,4,1
CN(c1ccccc1)N1CC(C(=O)NCC(c2ccccc2)c2ccccc2)CC1=O (stereo not drawn),0,-6
Cc1noc(COC(=O)[C@@H](NS(=O)(=O)c2ccccc2)C(C)C)n1,8,3
CCc1c(C)c(C(=O)N2CCN(c3ccccc3F)CC2)n(Cc2cccc(C)c2)c1C,5,6
CCCc1cc(C(=O)OCC)nn1C1CCN(C(=O)[C@H](C)OC(C)=O)CC1,17,11
O=C(Nc1ccc(-c2csc(NC(=O)c3c(O)c4ccccc4[nH]c3=O)n2)cc1)c1ccccc1,18,30
CCOC(=O)c1c(C)oc2nc(CN3CCCCCCC3)nc(N)c12,8,11
Cc1ccc(S(C)(=O)=O)cc1NC(=O)CN1CCCC1c1ccc(C(C)(C)C)cc1 (stereo not drawn),-5,219
CCOc1ccc(OCC)c(S(=O)(=O)NCc2ccco2)c1,2,14
C=CCn1c(SC(C)C(=O)OC)nc2c1c(=O)[nH]c(=O)n2C (stereo not drawn),-7,1
N#Cc1cccc(C(=O)N2CCOC(COc3ccc(F)cc3)C2)c1 (stereo not drawn),26,23
C=CCN(CC(=O)N(Cc1ccc(F)cc1)Cc1ccc(C)s1)C(=O)c1cccc(Br)c1,2,7
CCOC(=O)C1CCCN(C(=O)CN2CC3=C(C2=O)C(c2ccc(F)cc2)NC(=O)N3C)C1 (stereo not drawn),0,1
O=C(CCN1CCC(O)(c2ccccn2)CC1)Nc1nc2ccccc2s1,3,-2
CCOC(=O)CN1CCN(c2ccc(F)cc2F)C(=O)C1C (stereo not drawn),0,11
Cc1cn2c3c(=O)n(CC(N)=O)c(=O)n(C)c3nc2n1Cc1ccco1,13,8
C/C(=C1\C(=O)N(c2nc3ccccc3s2)N=C1C(F)(F)F)N1CCN(c2ccccc2)CC1,-13,-23
CCNC(=O)Nc1ccc(N(C)C)c(CN(C(=O)c2ccccc2Cl)C2CC2)c1,4,9
COc1cccc(OCc2nc(C(=O)N3CCN(c4ccccn4)CC3)co2)c1,-1,-1
O=c1[nH]c(N2CCOCC2)nnc1Cc1ccccc1,2,2
COc1cccc(-c2cccc(NC(=O)C3CCCCN3C(=O)CCn3cncn3)c2)c1 (stereo not drawn),13,6

# Later entries.
SMILES,NPYLR7 agonist,NPYLR7 agonist max-min
COCCNCc1ccc(OC)c(OS(=O)(=O)c2ccc(OC)cc2)c1,17,11
Cc1nc2nc(-c3ccc(Cl)c(Cl)c3)cc(C(=O)O)c2[nH]1,-2,-2
CCCCN(C)c1c(C)nc2ccc(C(=O)Nc3cc(-c4ccccc4)ccc3OC)cn12,-7,-12
O=C(CN1CCc2sccc2C1c1cccc(F)c1)N1CCN(C(=O)NC2CCCCC2)CC1 (stereo not drawn),-5,-8
CN(Cc1ccsc1)Cc1nc2ccsc2c(=O)[nH]1,10,9
O=C(Nc1nnc(SCc2ccc(F)cc2)s1)c1ccc([N+](=O)[O-])cc1,-3,-3
Cc1ccc(S(=O)(=O)NCCN2CCOCC2)s1,4,-2
O=C1CSC2(C(=O)Nc3ccccc32)N1c1ccccc1 (stereo not drawn),3,1
COC(=O)CN(Cc1cnn(C)c1)C(=O)Cc1cccs1,8,5
Cc1ccc(-c2ccc(C(=O)N(C)CCN(C)C)c(NCC3CC3)n2)cc1,4,-4
CN1CCCC1CCNC(=O)c1ccc(-c2n[nH]c3c2CCCc2ccccc2-3)cc1 (stereo not drawn),5,-1
CC(C)c1nc2sc3c(NCCCO)ncnc3c2c2c1COC(C)(C)C2,7,0
COc1ccc(Br)cc1S(=O)(=O)Nc1ccc2c(c1)OCCO2,7,11
CC1CCN(Cc2nnnn2CCCC(=O)NCC(C)Oc2cccnc2)CC1 (stereo not drawn),1,-2
OCCNc1nc(NC2CCCC2)nc2c1cnn2-c1ccc(F)cc1,1,-1
O=C(NCCc1nc2ccccc2[nH]1)c1c2c(nn1C1CCS(=O)(=O)C1)CCC2 (stereo not drawn),-12,-14
O=C(CCC1CCN(C(=O)c2cscn2)CC1)NC1CCN(Cc2ccccc2)C1 (stereo not drawn),15,10
COc1cc(OC)c(C2=NO[C@@H](c3ccccc3)[C@@H]2C(=O)OCc2ccccc2)c(OC)c1,-2,-4
CCOc1ccc2nc(SCC(=O)NCc3ccc(OC)cc3)sc2c1,-7,-16
Cc1cc(C(=O)N2CCN(c3cccc(C(F)(F)F)c3)CC2)nc2cc(-c3ccccc3)nn12,15,18
Cc1nonc1CN(C)Cc1cn(C)nc1-c1ccc(C2CCCCC2)cc1,-1&2,-3&1
CN(Cc1ccccc1C(F)(F)F)Cc1cn[nH]c1C(=O)O,21,16
COc1cc(OC)c(OC)cc1C=NNc1ccc(F)cc1F,1,0
Cc1ccc(NC(=O)c2c[nH]c3c(c(C)nn3-c3ccccc3)c2=O)cc1C,-3,19
C=CCCC(O)CN(Cc1ccccc1Cl)CC1CC(c2ccc(F)cc2)=NO1 (stereo not drawn),15,20
Cc1cc(C)cc(C(=O)N=Nc2c(O)[nH]c3ccc(F)cc23)c1,0,8
Cc1cc(NC(=O)C(C)SCC(=O)NCCc2ccc(-c3csc(C)n3)s2)no1 (stereo not drawn),1,19
CC1Oc2c(cccc2C(=O)OCc2ncc(Cl)n2C)NC1=O (stereo not drawn),-1,-5
COc1ccc2nc(N(Cc3cccnc3)C(=O)c3ccc4c(c3)OCCO4)sc2c1,-7,-7
CCOc1cccc(C2NC(=O)C3CCCCN32)c1O (stereo not drawn),6,3
CCCCNC(=S)N(C)N=Cc1sccc1C,-2,-4
COc1cccc(C(=O)N2CCN(c3cc(Cl)nc(SCC(=O)NCCc4ccc(Cl)cc4Cl)n3)CC2C)c1 (stereo not drawn),14,21
CCOc1ccc(-c2ccc(C(=O)NC(C)CCCN(CC)CC)s2)cc1 (stereo not drawn),4,18
Oc1oc(-c2ccc(Br)cc2)nc1C=Nc1cccc(C(F)(F)F)c1,-1,-5
CC(C(=O)N(C)Cc1cc(C2CC2)n[nH]1)n1cnc2ccccc21 (stereo not drawn),-11,-16
CC1=Nc2oc(N)nc2C(c2ccsc2)C1C#N (stereo not drawn),2,36
C=CCSC[C@@H](N)C(=O)O,6,-2

# From PubChem BioAssay
